# VDR inhibitor: vitamin D3 receptor (human) inhibition; P11473; Potency, µM, without a hit: max response, negative = inhibition, usual class: inhibitors; VDR-SRC2-3 peptide fluorescence polarization, 2 h; 400,000 compounds, 0.93% hits; active = well fitted inhibition curve with a large enough effect; inconclusive = small, poorly fitted or top-dose-only effect, or another doubt; inactive = no such curve, though single readings can be large or run the other way; also: series mostly up to about 120 µM
# Target sequence (P11473 whole entry, looked up): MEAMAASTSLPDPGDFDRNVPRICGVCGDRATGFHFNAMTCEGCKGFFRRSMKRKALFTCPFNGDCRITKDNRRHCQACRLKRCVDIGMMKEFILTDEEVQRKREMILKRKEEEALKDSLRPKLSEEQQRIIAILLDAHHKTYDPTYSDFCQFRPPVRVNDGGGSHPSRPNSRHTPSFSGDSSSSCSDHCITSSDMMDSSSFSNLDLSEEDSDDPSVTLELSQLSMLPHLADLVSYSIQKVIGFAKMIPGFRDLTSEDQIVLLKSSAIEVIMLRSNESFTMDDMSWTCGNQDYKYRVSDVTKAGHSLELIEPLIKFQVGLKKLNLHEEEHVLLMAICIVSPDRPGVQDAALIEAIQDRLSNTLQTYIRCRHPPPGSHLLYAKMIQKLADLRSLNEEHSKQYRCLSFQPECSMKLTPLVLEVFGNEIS
#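 After 23 nl compound addition and a short centrifugation, plates sat for 2 hours at ambient temperature; polarization of fluorescence then indicated loss of VDR binding to peptide SRC2-3.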
# The depositor's hits bear a star; ? = inconclusive; [ ] = another dose, or the depositor's remark. % is scaled to controls: 0 for no effect and ±100 for the full control effect; potency is read from the fitted curve at half-maximal effect. This is a subset. The share of hits here may be higher or lower than overall.
SMILES,VDR inhibitor
CCOC(=O)c1c(NC(=O)Cn2c(C)nc3ccccc32)sc2c1CCC2,0%
Cc1ccc(S(=O)(=O)NCC(=O)N2CCC(C)CC2)cc1,-25%
Cc1ccc(NC(=O)c2cnc(SCC(=O)NCC3CCCO3)n(C)c2=O)cc1C (stereo not drawn),-29%
CC(C(=O)NCCN1CCOCC1)c1ccc([N+](=O)[O-])cc1 (stereo not drawn),9%
COc1cc(NC(=O)c2cccs2)c(OC)cc1NC(=O)CCC(=O)Nc1ccc2ncccc2c1,7%
CC(OC(=O)/C=C/c1ccco1)C(=O)NC1CCCCC1C (stereo not drawn),1%
COc1cnc(-c2ccccc2)c(-c2ccccc2)n1,1%
CCCSc1ccc([C@H]2N[C@@](Cc3ccccc3)(C(=O)OC)[C@H]3C(=O)N(CC)C(=O)[C@@H]23)cc1,4%
O=C(CSc1nnc2ccccn12)N1CCc2ccccc2C1,-3%
CC1=NC(C#N)=C(C#N)NC(C)(C)C1,7%
Cc1nc2ccccc2n1CC(O)COC1CCCCC1 (stereo not drawn),-1%
Cc1cc2c(cc1C)CSC(c1ccccc1OC(=O)C(C)(C)C)SC2,-5%
COc1ccc(-c2cc3nc(C)c(CCC(=O)N4CCN(c5cccc(Cl)c5)CC4)c(C)n3n2)c(OC)c1,-5%
OC(CNCC1CCCO1)Cn1c2ccc(Br)cc2c2cc(Br)ccc21 (stereo not drawn),7%
CN(C)C(=O)C#Cc1ccccc1,9%
COc1cccc(C(=O)Oc2ccc(/C=N/NC(=O)c3ccncc3)cc2OC)c1,-16%
Cc1ccc(C(=O)NCC(=O)NCC(=O)OCC(=O)c2ccc([N+](=O)[O-])cc2)cc1,79µM*
Nc1ccc(C2CCCc3nonc32)c2nonc12 (stereo not drawn),-16%
CC1CC(C)CN(S(=O)(=O)c2cccc(C(=O)OCCN3CCCC3=O)c2)C1 (stereo not drawn),4%
COc1cc(CNC(=O)c2cc(-c3ccccc3)n[nH]2)cc(OC)c1OC,4%
CCOc1ccc(NC(=O)CN(C)CC(=O)Nc2cc(Cl)ccc2C#N)cc1OCC,-11%
CCC(=O)Nc1nnc(-c2ccncc2)s1,2%
Cc1ccc(S(=O)(=O)N2CCCCC2C(=O)N(C)c2ccccc2)cc1 (stereo not drawn),-11%
Cc1nc(SCC(=O)N(C)Cc2ccco2)c2c(C)c(C)sc2n1,-14%
Cc1ccc(S(=O)(=O)Cc2nnnn2-c2ccccc2)cc1,-7%

# Continuation.
SMILES,VDR inhibitor
Cc1cccc2sc(N(CCCN(C)C)C(=O)CCc3ccccc3)nc12,-10%
O=C(COC(=O)c1ccc(F)c(S(=O)(=O)N2CCOCC2)c1)NCc1ccc2c(c1)OCO2,3%
Cc1ccc(CNC(=O)CSc2c3c(nc4cc(Cl)ccc24)CCCC3)o1,?
CCc1nc2ccc(C(=O)N(C)CC(=O)Nc3cccc(F)c3)cc2nc1CC,-7%
Cc1ccc2nc3[nH]c(=O)[nH]c(=O)c3c(N)c2c1,45%[activator]
Nn1c(SCc2c(F)cccc2F)nnc1-c1ccccn1,-4%
C=CCc1c(C)nc2cc(-c3ccc(C)cc3)[nH]n2c1=O,-7%
CC(=O)Nc1cccc(NC(C)=O)n1,7%
Cc1ccc(-c2cn(CCN)c(-c3ccc(Cl)nc3)n2)cc1,-10%
Brc1ccc(CSc2ncnc3nc[nH]c23)cc1,0%
CC(OC(=O)C1CC1C)C(=O)Nc1ncc(Cl)cc1Cl (stereo not drawn),1%
CC(C)(C)c1ccc(C(=O)c2c[nH]c(C(=O)NCc3cccnc3)c2)cc1,9%
CCN1CCN(c2cc(C)c3cc(NC(=O)c4cnccn4)ccc3n2)CC1,12%
O=C(COC(=O)c1cc([N+](=O)[O-])ccc1N1CCOCC1)Nc1c(Cl)cccc1C(F)(F)F,4%
COc1ccc(C(=O)NCc2ccc(C(=O)O)o2)cc1,-1%
C=CCN1C(=O)CSc2ccc(C(=O)NCc3ccc(F)cc3)cc21,-4%
CC(=O)c1cc2ccc(O)cc2oc1=O,-13%
Cc1ccc(NC(=O)COC(=O)C2CCC2)cc1S(=O)(=O)N1CCCCC1,-9%
COC(=O)C1CCN(C(=O)COc2ccc(Cl)cc2)CC1,-11%
COC(=O)[C@H](Cc1ccccc1)NC(=O)c1cc(COc2c(F)cccc2F)on1,-29%
Cc1ccccc1NC(=O)C1CC(=O)N(c2ccccc2F)C1 (stereo not drawn),12%
Cc1ccccc1NC(=O)c1cccc2c(=O)c3c([nH]c12)CCCC3,8%
Cc1ccc(C)c(CN2C(=O)C(C)Oc3ccc(C)cc32)c1 (stereo not drawn),7%
CSc1ccc(NC(=O)CC(C)=O)cc1,-11%
O=C(CSc1cccc[n+]1[O-])NN(c1ccccc1)c1ccccc1,8%

# Another view of part of the listing above:
VDR inhibitor,molecule
7%,CC(=O)Nc1cccc(NC(C)=O)n1
-10%,Cc1ccc(-c2cn(CCN)c(-c3ccc(Cl)nc3)n2)cc1
0%,Brc1ccc(CSc2ncnc3nc[nH]c23)cc1
1%,CC(OC(=O)C1CC1C)C(=O)Nc1ncc(Cl)cc1Cl (stereo not drawn)
9%,CC(C)(C)c1ccc(C(=O)c2c[nH]c(C(=O)NCc3cccnc3)c2)cc1
12%,CCN1CCN(c2cc(C)c3cc(NC(=O)c4cnccn4)ccc3n2)CC1
4%,O=C(COC(=O)c1cc([N+](=O)[O-])ccc1N1CCOCC1)Nc1c(Cl)cccc1C(F)(F)F
-1%,COc1ccc(C(=O)NCc2ccc(C(=O)O)o2)cc1
-4%,C=CCN1C(=O)CSc2ccc(C(=O)NCc3ccc(F)cc3)cc21
-13%,CC(=O)c1cc2ccc(O)cc2oc1=O
-9%,Cc1ccc(NC(=O)COC(=O)C2CCC2)cc1S(=O)(=O)N1CCCCC1
-11%,COC(=O)C1CCN(C(=O)COc2ccc(Cl)cc2)CC1
-29%,COC(=O)[C@H](Cc1ccccc1)NC(=O)c1cc(COc2c(F)cccc2F)on1
12%,Cc1ccccc1NC(=O)C1CC(=O)N(c2ccccc2F)C1 (stereo not drawn)
8%,Cc1ccccc1NC(=O)c1cccc2c(=O)c3c([nH]c12)CCCC3
7%,Cc1ccc(C)c(CN2C(=O)C(C)Oc3ccc(C)cc32)c1 (stereo not drawn)
-11%,CSc1ccc(NC(=O)CC(C)=O)cc1

# Additional entries follow.
SMILES,VDR inhibitor
NC(=O)C1CCN(C(=O)CC2(CC(=O)O)CCCCC2)CC1,-18%
CCNCc1cc(OCC)c(OCC(=O)NCCc2ccccc2)cc1Cl,5%
COc1ccc(CC(=O)Nc2ccccc2NC(=O)c2ccco2)cc1OC,2%
Cc1cccc2nc(=S)n(C(=O)c3ccco3)n12,-15%
COc1cccc(COC(=O)C2CCN(S(=O)(=O)c3ccc(F)cc3)CC2)c1OC,-20%
O=C(CSc1n[nH]c(=O)n1C1CC1)Nc1ccc(Cl)cc1Cl,5%
CCC(C)NC(=O)COc1ccccc1[N+](=O)[O-] (stereo not drawn),-7%
CCC1(c2ccccc2)NC(=O)N(CC(=O)Nc2ccccc2C(=O)N2CCCCC2)C1=O (stereo not drawn),8%
O=S(=O)(NCCN1CCOCC1)c1cc(Cl)c(Cl)cc1Cl,-4%
CC(NC(=O)C(=O)NCc1cccs1)c1ccccc1 (stereo not drawn),0%
Clc1ccc(-c2csc(N3CCSCC3)n2)cc1,-29%
CCCC1CCC(C(=O)Nn2cnc3ccccc3c2=O)CC1 (stereo not drawn),12%
CC(=O)c1ccc(S(=O)(=O)N2CCn3cccc3C2c2ccccc2F)cc1 (stereo not drawn),1%
CC(=O)Nc1cc(-c2ccc(Cl)cc2)[nH]n1,-11%
Cc1cc2nc3n(c2cc1C)CC1CC(C(=O)NCC2CC2)N(C)C31 (stereo not drawn),-1%
CCCc1cc(=O)n2[nH]c(NCc3ccc(Cl)cc3Cl)nc2n1,14%
Cc1ccccc1OCC(=O)Nc1ccc(C(N)=O)cc1,-10%
O=C(COC(=O)c1ccc2c(c1)C(=O)N(Cc1ccncc1)C2=O)Nc1ccccc1[N+](=O)[O-],-13%
CC(C)(C)NC(=O)C(c1ccncc1)N(C(=O)CNC(=O)c1ccco1)c1ccc2c(c1)OCO2 (stereo not drawn),2%
Cc1cc(C(=O)Cn2nc(C(=O)O)c3ccccc3c2=O)c(C)n1-c1ccc(OC(F)F)cc1,-11%
CC(C)C[C@H](NC(=O)CNC(=O)[C@H](C)NC(=O)[C@H](CC(C)C)NC(=O)[C@H](CCCNC(=N)N)NC(=O)[C@H](Cc1cnc[nH]1)NC(=O)[C@@H](NC(=O)[C@@H](N)C(C)C)[C@@H](C)O)C(=O)N[C@@H](CC(C)C)C(=O)N[C@@H](CO)C(=O)N[C@@H](CCCNC(=N)N)C(=O)N[C@@H](CO)C(=O)NCC(=O)NCC(=O)N[C@H](C(=O)N[C@H](C(=O)N[C@@H](CCCCN)C(=O)N[C@@H](CC(N)=O)C(=O)N[C@@H](CC(N)=O)C(=O)N[C@@H](Cc1ccccc1)C(=O)N[C@H](C(=O)N1CCC[C@H]1C(=O)N[C@H](C(=O)N[C@@H](CC(N)=O)C(=O)N[C@H](C(=O)NCC(=O)N[C@@H](CO)C(=O)N[C@@H](CCCCN)C(=O)N[C@@H](C)C(=O)N[C@@H](Cc1ccccc1)C(N)=O)C(C)C)[C@@H](C)O)C(C)C)C(C)C)C(C)C,1%
Cc1nnc(NC(=O)c2ccc3ccccc3c2)s1,1%
Cc1nc(N2CCN(S(=O)(=O)c3ccccc3C#N)CC2)c2c(-c3cccs3)csc2n1,-23%
CC(=O)Nc1ccccc1-c1nc2ccc(C(=O)N3CCN(c4ccccc4)CC3)cc2[nH]c1=O,-16%
Cc1nc2ccccc2n1C(C)c1ccccc1 (stereo not drawn),7%

# (listing goes on)
SMILES,VDR inhibitor
COc1ccc(NC(=O)CSc2nnc(NC(=O)c3ccc(S(=O)(=O)N4CCOCC4)cc3)s2)cc1,-6%
Cn1c(NC(=S)Nc2ccccc2)nc2ccccc21,?
CC(C)(C)C1CCC(=NNc2ncc(C(F)(F)F)cc2Cl)CC1 (stereo not drawn),9%
Cc1ccc(CN2CCN(/N=C/c3ccc(N(C)C)cc3)CC2)cc1,11%
Cc1ccn(CC(=O)N/N=C/c2cc([N+](=O)[O-])ccc2O)n1,2%
O=C(COC(=O)/C=C/c1ccc(OC(F)F)cc1)NCCN1C(=O)CSC1=O,6%
O=C(c1ccco1)N1CCC2(CCCN(c3ncccn3)C2)CC1,0%
COc1ccc(C2c3ccsc3CCN2C(=O)C(C)(C)C)cc1 (stereo not drawn),2%
COc1ccccc1NC(=O)Cn1c(C)cc(=O)c2cccc(OC)c21,5%
Cc1ccc(NC(=O)COc2ccccc2[N+](=O)[O-])nc1,6%
CCCOC(=O)c1ccc(NC(=O)c2nc3nc(C)cc(C)n3n2)cc1,-7%
CC1=NC2(CCCc3c2no[n+]3[O-])N(O)C1(C)C (stereo not drawn),14%
O=C(NCc1ccc(F)cc1)C1CCCN(c2ncnc3onc(-c4ccc(F)cc4)c23)C1 (stereo not drawn),7%
Cc1cc(Nc2cc(Cl)ccc2C)n2nc(-c3ccccc3)nc2n1,2%
CC(=O)O/N=C1\C(=O)N(Cc2ccc(C)cc2)c2ccccc21,?
O=C(c1ccc2[nH]c3c(c2c1)CCCC3)N1CCN(c2ccc(F)cc2)CC1,0%
CC(C(=O)NC1CCCC1)N(Cc1ccc2c(c1)OCO2)C(=O)c1snc(C(N)=O)c1N (stereo not drawn),14%
O=C(CNC(=O)c1cccs1)c1ccc(F)cc1,-2%
C/C(=N/NC(=O)C(O)(c1ccccc1)c1ccccc1)c1ccc([N+](=O)[O-])o1,-16%
COCc1c(C(=O)OCc2nc(N)nc(Nc3ccccc3C)n2)oc2ccccc12,-4%
COC(=O)[C@H](C)NC(=O)COc1ccccc1,-3%
C=CCSc1nnc(-c2ccc(Cl)cc2Cl)o1,13%
O=C(COc1ccccc1F)NC1CC1,15%
CCc1nnc(NC(=O)C2=CCN(S(=O)(=O)c3ccccc3)CC2)s1,-4%
CC(=O)Nc1nonc1-c1nnc(SCc2ccccc2C)n1C,-17%

# Further entries.
SMILES,VDR inhibitor
O=C(N/N=C1\CC2CC=CC12)c1ccc(O)cc1 (stereo not drawn),23%
Cc1ccc(C)c(C(=O)COC(=O)c2nn(C)c(=O)c3ccccc23)c1,-15%
Cc1ccc(C)c2nc(SCC(=O)N3CCCc4ccccc43)c(C#N)cc12,-8%
CCCCN(CCCC)C(=O)CN(C)S(=O)(=O)c1ccc2c(c1)n(C)c(=O)c(=O)n2C,-1%
Cc1ccc(S(=O)(=O)/N=C(/Nc2nc(C)cs2)c2ccccc2)cc1,2%
COc1ccc(NC(=O)/C=C/c2ccc(S(=O)(=O)N3CCOCC3)cc2)cc1,-14%
Cc1c(C(=O)N(Cc2cccc(F)c2)C2CCS(=O)(=O)C2)oc2cc(Br)ccc12 (stereo not drawn),6%
COC(=O)C1=C(N)OC2=C(C(=O)CCC2)C1c1ccccc1OC (stereo not drawn),4%
CCSc1ncc(/C=N/Nc2ccccc2)n1C,-13%
[N-]=[N+]=NC(c1ccccc1)c1nc2ccccc2[nH]c1=O (stereo not drawn),0%
COCCCNC(=O)C1CCN(c2nc3ccc(Cl)cc3[nH]2)CC1,3%
COc1ccc(C(=O)CC(=O)C(=O)Nc2ccc(C)c(C)c2)cc1,-1%
C=CCN(CC=C)C(=S)Nc1ccc(OC)c(OC)c1,4%
O=C(NCc1cccs1)c1noc2c1CCCC2,3%
COC(=O)CSc1nnc(CNc2ccc(Cl)cc2)n1-c1ccccc1,8%
